miR-21 FLuc: miR-21 reporter, rising signal; HeLa miR-21 FLuc reporter, luciferase, 48 h; Potency, µM (top dose mostly 38.3 µM), without a hit: top-dose reporter change, positive = more light; 340,000 tested, under 10 active; AID 2288; active = well fitted rising curve with a large enough effect; inconclusive = small, poorly fitted or top-dose-only effect; inactive = no such curve, though single readings can be large or run the other way;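 also: % of control where 0% means no effect; miR-21 action dims this reporter so a rising signal means less miR-21 action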
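Luminescence from a firefly luciferase reporter carrying a miR-21 binding site downstream, stably expressed under a CMV promoter in HeLa cells that make miR-21 endogenously, reports miRNA modulation after 48 h compound exposure up to approximately 40uM final.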
Rango complex inh: prevents formation of the Rango-importin beta complex | Q14974 | Rango CFP/YFP FRET sensor + importin beta, 45 min | Potency, µM (titrated, usually from 92.2 µM), for the others: at the highest dose inhibition of complex formation | 340,000 tested, 0.031% active | AID 540263; active = rising FRET ratio curve, often small or poorly fitted; inconclusive = mostly compound fluorescence or quenching in the first reads; inactive = flat curves in all reads;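 also: potency is read from the fitted curve at half-maximal effect; 0% = DMSO wells and 100% = buffer wells lacking importin beta; nearly all actives have a fitted effect of over 15% in size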
Target sequence (Q14974 whole entry, looked up): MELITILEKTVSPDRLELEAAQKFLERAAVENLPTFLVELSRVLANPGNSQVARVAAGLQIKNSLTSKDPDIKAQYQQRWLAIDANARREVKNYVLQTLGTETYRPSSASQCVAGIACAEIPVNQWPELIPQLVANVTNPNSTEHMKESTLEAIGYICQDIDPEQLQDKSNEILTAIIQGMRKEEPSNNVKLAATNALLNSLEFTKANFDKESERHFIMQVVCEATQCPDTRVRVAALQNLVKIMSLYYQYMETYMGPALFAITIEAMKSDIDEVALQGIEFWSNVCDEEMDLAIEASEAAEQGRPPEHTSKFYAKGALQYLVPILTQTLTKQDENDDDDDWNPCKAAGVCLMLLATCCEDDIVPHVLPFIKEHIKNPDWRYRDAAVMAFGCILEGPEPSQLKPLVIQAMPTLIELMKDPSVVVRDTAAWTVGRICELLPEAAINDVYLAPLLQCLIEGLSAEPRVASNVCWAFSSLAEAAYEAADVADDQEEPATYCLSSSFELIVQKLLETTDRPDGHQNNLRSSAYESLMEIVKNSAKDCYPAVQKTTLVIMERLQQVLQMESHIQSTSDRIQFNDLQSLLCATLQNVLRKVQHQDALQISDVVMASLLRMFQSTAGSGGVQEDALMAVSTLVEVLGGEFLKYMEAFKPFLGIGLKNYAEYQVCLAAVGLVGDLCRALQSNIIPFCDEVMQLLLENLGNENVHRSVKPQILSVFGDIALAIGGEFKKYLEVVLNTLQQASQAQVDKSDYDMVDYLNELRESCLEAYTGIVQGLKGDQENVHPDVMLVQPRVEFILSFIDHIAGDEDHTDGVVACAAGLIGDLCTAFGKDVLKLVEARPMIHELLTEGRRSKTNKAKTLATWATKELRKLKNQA
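Inhibition scored from the CFP 486 nm/YFP 530 nm FRET ratio 45 min after adding 0.125 microM importin beta to 50 nM Rango biosensor preincubated 5 min with compound (room temperature, PBS with DTT, Tween-20, BSA). No-importin wells as positive control.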
Rango dissoc inh: inhibition of RanGTP-driven Rango-importin beta dissociation | 340,000 tested, 0.071% active | Biochemical FRET Rango-importin beta, RanGTP-induced dissociation | Potency, µM (highest dose often 46.1 µM), for the others: top-dose activity change, negative = inhibition; active means falling FRET ratio curve, often poorly fitted, with flat reads before Ran was added; inconclusive means other falling curves, or compound fluorescence or quenching; inactive means flat or rising ratio curve;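 also: potency is read from the fitted curve at half-maximal effect; % of control where 0% means no effect; nearly all actives have a fitted effect of over 45% in size; -100% = wells without RanGTP and RCC1; the record marks most hits as doubtful in a second field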
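Quantitative HTS using a FRET biosensor: 0.1 uM Rango, 0.25 uM importin beta, 0.6 uM Ran, 2 mM GTP, 0.2 uM RCC1 final, PBS with DTT, Tween-20 and BSA. Post-read taken 45 min after Ran addition.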
GLA inh pH 4.5: alpha-galactosidase A (human) inhibition, pH 4.5. purified enzyme, 4-MU-alpha-Gal fluorescence, pH 4.5. activity change, negative = inhibition, % at 105 µM. P06280. 230,000 tested, under 10 active; inconclusive = small, poorly fitted or top-dose-only inhibition, or a rising curve; inactive = flat fitted curve, though single readings scatter; no compound was filed as active;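 also: 0% = full activity with enzyme and -100% = basal without enzyme; dose as in the result columns while the protocol names 77 µM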
* hit, by the source's call; ? = inconclusive; / = no result given; & = joins results of further samples. A portion of the library (hit frequency here may not be typical).

miR-21 FLuc | Rango complex inh | Rango dissoc inh | GLA inh pH 4.5 | Structure
-34% | -1.1% | 0% | -1 | CC(Sc1nnc(-c2ccc(O)cc2)o1)C(=O)Nc1cccc2ccccc12 (stereo not drawn)
-2% | -3.5% | -17% | / | CCn1c(SCC(=O)N2CCCC(C)C2)nnc1-c1ccco1 (stereo not drawn)
-26% | -3.3% | -8% | 5 | Cn1c(NCC(O)CO)nc2c1c(=O)n(Cc1ccc(Cl)c(Cl)c1)c(=O)n2C (stereo not drawn)
20% | ? | ? | / | O=C(N/N=C\c1c(O)ccc2ccccc12)c1cncc(Br)c1
-1% | 4.4% | 0% | 4 | O=C(CN1CCCN(Cc2ccc(F)cc2Cl)C1=O)NC1CCCC1
-1% | 2.4% | 0% | / | CCOc1nc(-c2ccccc2)c2cc(Br)ccc2n1
0% | -3.6% | 1% | 10 | COCCn1c(SCC(=O)Nc2ccccc2C)nc2c(oc3ccccc32)c1=O
-3% | -1.4% | 0% | / | O=C(CNCC(=O)Nc1ccc(F)c(F)c1F)Nc1ccc(F)c(F)c1F
-6% | 2.1% | -9% | 3 | CCOCCn1c(CC)nc2ccccc21
-2% | 2.1% | 5% | / | CC(=O)N1c2ccc(S(=O)(=O)N3CCCC(C(=O)NCc4ccccc4Cl)C3)cc2CC1C (stereo not drawn)
-30% | -0.3% | 13% | -2 | CCOC(=O)c1sc2ncnc(N3CCN(C)CC3)c2c1C
0% | -1.7% | 2% | -15 | C=CCn1c2ccccc2c2nnc(SC(CC)C(=O)Nc3nc(C)c(C(=O)OCC)s3)nc21 (stereo not drawn)
0% | 0.2% | -1% | 10 | CCOC(=O)c1sc(Nc2nc(C)cc(OC)n2)nc1C
-5% | -0.8% | 15% | / | COc1ccc2cc(C(=O)C3CCCN(C(=O)c4cnn(C(C)C)c4)C3)ccc2c1 (stereo not drawn)
-25% | -1.4% | -1% | -14 | CCOC(=O)c1c(C=O)c2sc(C)cc2n1C
20% | ? | 9% | -28 | COc1cc(OC)c2cc(C(=O)N/N=C/c3cccc(OC)c3O)[nH]c2c1
/ | ? | -19% | -15 | O=C1OCCN1C(=O)[C@H]1[C@H](c2ccc(Cl)cc2)C(c2ccccc2)=NN1c1ccccc1
20% | 2.0% | 2% | 6&-7 | C#CCCOC(=O)N1C2=NC(C(=O)OC)=C(C(=O)OC)[C@@H]3N(Cc4ccccc4)c4ccccc4[C@]23C[C@H]1C(=O)OC
-43% | -1.1% | 0% | / | O=C(Nc1nccs1)c1ccc(-c2ccccc2[N+](=O)[O-])o1
-6% | -1.4% | 4% | -2 | Cc1cccc(NC(=O)c2cc(S(=O)(=O)NCc3ccco3)ccc2F)c1C
-12% | 3.2% | 9% | -11 | Clc1ccc(Sc2oc(/C=N/n3cnnc3)cc2Br)cc1
/ | -3.3% | -16% | / | C=CCN1C(=O)c2ccc(C(=O)OCC(=O)N(CC)c3c(N)n(Cc4ccccc4)c(=O)[nH]c3=O)cc2C1=O
0% | 3.2% | -7% | -1 | CC(=O)c1cccc(NC(=O)[C@@H](NC(N)=O)C(C)C)c1
/ | 6.9% | -15% | / | CCOc1ccccc1NC(=O)COC(=O)c1c[nH]c2ccccc12
/ | -2.4% | -7% | / | CC(C)(C)S(=O)N1Cc2cc(CO)cc(CCO)c2[C@H]1CCO (stereo partly drawn)
-1% | ? | 1% | -3 | COc1ccc([N+](=O)[O-])cc1NS(=O)(=O)c1cccc(C(=O)O)c1
-3% | ? | ? | / | COc1ccc(/C=C(\C#N)C(=O)Nc2ccccn2)cc1
-6% | 1.8% | -5% | 2 | CCC(C)(C(=O)Nc1ccccc1C)N(C(=O)CNC(C)=O)c1ccc(C)cc1 (stereo not drawn)
-9% | -4.4% | 12% | 10 | CCOC(=O)N1CCN(C(c2ccc(F)cc2)c2sc3nc(C)nn3c2O)CC1 (stereo not drawn)
18% | -0.4% | 18% | -25 | CC1CC(C)CN(CC(=O)NC(c2ccccc2)c2ccccc2)C1 (stereo not drawn)
-1% | / | / | -8 | CCC(=O)Nc1ccc(C(=O)CN2CCC(C)CC2)cc1
11% | 1.7% | -1% | -9 | CCCCCCn1c(CN2CCN(Cc3ccccc3)CC2)nc2c1c(=O)n(C)c(=O)n2C
-3% | 0.3% | -8% | 7 | Cc1nn(Cc2n[nH]c(=S)n2Cc2ccccc2)c(C)c1Cl
4% | 5.0% | 11% | -6 | COc1ccccc1C(=O)NCC(=O)OCC(=O)Nc1cccc(S(=O)(=O)N2CCCCCC2)c1
/ | -1.4% | 0% | / | COc1ccccc1CNC(=O)c1ccc(Cl)c(S(=O)(=O)N2CCCC2)c1
1% | -2.4% | 29% | 0 | COCCNC(=O)CC(=O)N/N=C/c1ccc(C(=O)OC)cc1
/ | -0.9% | 8% | / | COc1ccc(S(=O)(=O)N2CCOC23CCN(S(=O)(=O)c2ccc(F)cc2C)CC3)cc1
23% | 2.4% | 39% | -20 | C=CCn1c(SCc2csc(-c3ccc(C)cc3)n2)nnc1-c1ccccc1OC
/ | 0.1% | 9% | / | COc1ccc2[nH]c3c(c2c1)CCN1C(=O)C(CC(=O)NC(C)(C)C)C[C@H](C(=O)N(C(C)C)C(C)C)[C@@]31C (stereo partly drawn)
-13% | 3.2% | -16% | 7 | O=S1(=O)CC=C(CSc2nc3ccccc3[nH]2)C1
1% | 3.5% | 4% | -9 | COc1ccc(NC(=O)CSc2nnc3c4c(nc(-c5ccccc5)n23)CC(C)(C)OC4)cc1
19% | -4.1% | 7% | -3 | O=C(NCc1ccc2c(c1)OCO2)C1CCN(c2ccc(S(=O)(=O)N3CCCC3)cc2)CC1
/ | 1.8% | 8% | / | COc1ccc2oc(C(=O)N3CCN(C(=O)c4ccco4)CC3)c(C)c2c1
-1% | -1.0% | -10% | 0 | CCC(C)(C)NC(=O)c1sccc1Oc1ccc(F)cc1[N+](=O)[O-]
4% | 0.3% | 0% | -9 | CN(C(=O)c1ccc(S(=O)(=O)NC2CCCC2)cc1)C1CCCCC1
-5% | 1.8% | 2% | -3 | CC1=C(C(=O)N2CCOCC2)C(c2ccsc2)C2=C(CCCC2=O)N1 (stereo not drawn)
1% | 6.8% | 7% | / | N#CC1(c2ccccc2)CCN(S(=O)(=O)c2ccc(OC(F)(F)F)cc2)CC1
-73% | 0.2% | -6% | 0 | COc1cc(/C(C)=N/NC(=O)CSc2nncn2C)ccc1OCc1ccccc1Cl
12% | 5.0% | -2% | 0 | COc1ccc(N/N=C(\C=N\O)C(=O)c2ccc(OC)cc2)cc1
27% | -0.7% | 14% | -2 | c1ccc(Cn2c(-c3ccccc3)c[n+]3c2SCCC3)cc1
-21% | -0.7% | 12% | 8 | CCCc1ccc(OCCNC(C)=O)cc1
-10% | -0.3% | -7% | -9 | Cc1c(C(=O)O)oc2c1/C(=N\O)CC(C)(C)C2
5% | -1.6% | -2% | 1 | O=C(NCc1ccco1)/C(=C\c1cccs1)NC(=O)c1ccccc1
-2% | -0.2% | -8% | -2 | Cc1cc(OCCCCOc2ccc(C#N)cc2)ccc1[N+](=O)[O-]
/ | 0.8% | 0% | / | CCOc1cccc(C=NNc2ccc(S(=O)(=O)Nc3ccccc3C(=O)O)cc2[N+](=O)[O-])c1O
-6% | 6.0% | 8% | -1 | Cc1onc(-c2ccccc2)c1C(=O)NCc1cccnc1
-59% | -2.4% | 0% | 7 | Nc1ncnc2c1cnn2-c1ccccc1
-34% | 2.2% | 0% | 4 | Cc1ccc(CNC(=O)NC2CCCCC2)cc1
-35% | -0.1% | -5% | / | COc1ccc(CNC(=O)c2ccc3ccccc3n2)cc1
-2% | 1.9% | -12% | -8 | CC(=O)c1ccc(OCCOc2ccc(C#N)cc2)cc1

Remaining list, next part.
miR-21 FLuc | Rango complex inh | Rango dissoc inh | GLA inh pH 4.5 | Structure
/ | 4.5% | -29% | / | Cc1onc(-c2ccccc2)c1C(=O)Nc1ccc(NC(=O)c2c(-c3ccccc3)noc2C)cc1
-22% | -4.9% | 1% | / | COc1ccc(-c2oc3ccccc3c2C(=O)OCc2ccc(O)cc2)cc1
1% | -1.9% | -7% | -5 | Cc1ccccc1CSc1nncn1N
-24% | 0.8% | 16% | / | CCOC(=O)c1sc(=NC(=O)c2cccc(Br)c2)n(C)c1C
-18% | -0.1% | -14% | / | CCC(C)Sc1nnc(NS(=O)(=O)Cc2ccccc2)s1 (stereo not drawn)
-8% | 0.9% | ? | 3 | Cn1nnnc1SCc1ccc([N+](=O)[O-])cc1
/ | -0.7% | -8% | / | COCCn1c(SC(C)C(=O)NC2CC2)nnc1-c1cccc(C)c1 (stereo not drawn)
-26% | -1.0% | -8% | / | COc1ccc(C(C)(C)C)cc1NC(=O)c1ccc2ncsc2c1
3% | -0.7% | -3% | 4 | Cc1ccc(S(=O)(=O)N(CC(=O)N/N=C/c2ccc(F)cc2)c2cccc3cccnc23)cc1
/ | -2.2% | 8% | / | Cc1sc2ncnc(N3CCC(C(=O)N(CC(C)C)c4nc5ccccc5s4)CC3)c2c1C
-9% | -2.2% | 3% | / | Cc1ccc(NS(=O)(=O)c2ccc(C(=O)NCc3ccccn3)cc2)cc1
/ | -1.4% | -16% | / | CCN(C[C@H]1N[C@@](Cc2ccccc2)(C(=O)OC)[C@H]2C(=O)N(C)C(=O)[C@@H]12)C(=O)Nc1ccc(Cl)cc1
3% | 0.3% | -11% | / | Cc1ccc(S(=O)(=O)NC(=NCc2ccccc2)c2ccc(F)cc2)cc1
/ | 2.6% | 11% | / | O=C(O)C(c1cccs1)C1(O)CCCCC1 (stereo not drawn)
/ | -3.7% | 10% | / | O=C(COc1ccccc1Cl)NNC(=O)c1ccc2c(=O)n3c(nc2c1)CCC3

Compound profiles, from the list above.
`COCCn1c(SC(C)C(=O)NC2CC2)nnc1-c1cccc(C)c1` (stereo not drawn) is listed as miR-21 FLuc: /; Rango complex inh: -0.7%; Rango dissoc inh: -8%; GLA inh pH 4.5: /
`CCN(C[C@H]1N[C@@](Cc2ccccc2)(C(=O)OC)[C@H]2C(=O)N(C)C(=O)[C@@H]12)C(=O)Nc1ccc(Cl)cc1` is listed as miR-21 FLuc: /; Rango complex inh: -1.4%; Rango dissoc inh: -16%; GLA inh pH 4.5: /
`O=C(COc1ccccc1Cl)NNC(=O)c1ccc2c(=O)n3c(nc2c1)CCC3` is listed as miR-21 FLuc: /; Rango complex inh: -3.7%; Rango dissoc inh: 10%; GLA inh pH 4.5: /

An excerpt from above in order of their number in GLA inh pH 4.5, rising.
miR-21 FLuc | Rango complex inh | Rango dissoc inh | GLA inh pH 4.5 | Structure
4% | 0.3% | 0% | -9 | CN(C(=O)c1ccc(S(=O)(=O)NC2CCCC2)cc1)C1CCCCC1
27% | -0.7% | 14% | -2 | c1ccc(Cn2c(-c3ccccc3)c[n+]3c2SCCC3)cc1
12% | 5.0% | -2% | 0 | COc1ccc(N/N=C(\C=N\O)C(=O)c2ccc(OC)cc2)cc1
-3% | 0.3% | -8% | 7 | Cc1nn(Cc2n[nH]c(=S)n2Cc2ccccc2)c(C)c1Cl
0% | -3.6% | 1% | 10 | COCCn1c(SCC(=O)Nc2ccccc2C)nc2c(oc3ccccc32)c1=O

More records follow:
miR-21 FLuc | Rango complex inh | Rango dissoc inh | GLA inh pH 4.5 | Structure
-4% | 3.5% | 4% | -5 | CCC(C)[C@H](N)c1nnc(SCC(=O)Nc2cccc(Cl)c2)o1 (stereo partly drawn)
0% | 4.7% | 0% | / | CCCC[C@H]1COCCS(=O)(=O)N1Cc1ccccc1F
? | 0.0% | 8% | / | Cc1ccc(/C=C2\SC(=S)N(CCCC(=O)NC3CCCC3)C2=O)cc1
/ | 0.4% | 2% | / | CCNc1nc2c(cnn2C)c(=O)[nH]1
2% | 7.3% | 7% | -7 | COc1ccc2[nH]c3c(=O)n(CCCCC(=O)NCCN4CCCC4)c(=S)[nH]c3c2c1
/ | -1.0% | 2% | / | COc1cccc(NC(=O)C(OC(=O)c2cnc(C)cn2)c2ccccc2)c1 (stereo not drawn)
1% | -1.7% | -25% | / | CCS(=O)(=O)N1CCN(S(=O)(=O)c2ccc3ccccc3c2)CC1
-15% | 1.1% | ? | -8 | CCOc1ccc2nc(NC(=O)CCn3cccc3)sc2c1
-36% | 0.3% | -9% | -3 | COc1ccccc1OCCCn1c(=O)oc2ccccc21
1% | 5.2% | 3% | / | COc1ccc(CCNC(=O)c2cc3c(=O)n4ccccc4nc3n(C3CCCCC3)c2=N)cc1OC

Compound activity (PubChem)
